Screening data deposited in PubChem BioAssay by ICCB-Longwood Screening Facility, Harvard Medical School.
CapD inh = blocks the Bacillus anthracis CapD enzyme; AID 492967; purified CapD enzyme, fluorescence intensity read-out; hits give low values; some hits fall short of the stated cut; z-score (concentration not given with the values); 140,000 tested, 0.23% active;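 active = z-score under -4 in either of two replicates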;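 also: stock transfer was 100 nL into about 40 µL; score is relative to mean and spread of the plate; one replicate is shown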
AID504770 = growth inhibitors of E. coli YBA685 in a screen for V. cholerae RctB (chromosome II replication) inhibitors | E. coli YBA685 rctB-dependent plasmid, OD600 growth, 3 h; hits give low values | z-score (test concentration not listed) | 130,000 tested, 0.27% active | AID 504770;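 active = z-score under -2 on both plates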;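 also: wells of about 30 µL received 100 nL stock; score is relative to mean and SD of the test wells; the first replicate is given; strong numbers were not always called active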
Numbers without * were called inactive; i = inactive; · = not tested or not shown. This is a random part of the collection; overall some 0.41% were active at least once.

SMILES	CapD inh	AID504770
COc1cc(NC(=O)CCN2CCOCC2)cc(OC)c1	·	1.6
CCOC(=O)c1oc2ccc(Br)cc2c1CSc1nnc(-c2ccc(OC)cc2)o1	·	1.7
O=C1C2C3C=CC(C3)C2C(=O)N1C1CC2CCC1C2 (stereo not drawn)	·	-0.15
O=C(NCCSCc1ccco1)C1CC1	-0.01	·
CC(=O)OC1CCN(c2ncc(C(F)(F)F)cc2Cl)CC1	-0.56	-0.9
COc1cccc2c1N=C1OC=CC1C2OC (stereo not drawn)	2.9	-0.55
Brc1ccccc1Cn1cnc2ccccc21	0.23	-0.5
COc1ccc(OC)c(NC(=O)COC(=O)c2ccc(S(=O)(=O)N3CCOCC3)cc2)c1	·	0.2
Cc1cccc(N(C)Cc2nnc(-c3ccc4c(c3)OCO4)o2)c1	0.05	0.1
NC(=O)CSc1nc2ccccc2c(=O)n1-c1cccc(Cl)c1	·	-0.5

Sorted by molecular weight (low to high): part of the list above.
SMILES	CapD inh	AID504770
Brc1ccccc1Cn1cnc2ccccc21	0.23	-0.5
Cc1cccc(N(C)Cc2nnc(-c3ccc4c(c3)OCO4)o2)c1	0.05	0.1
NC(=O)CSc1nc2ccccc2c(=O)n1-c1cccc(Cl)c1	·	-0.5
COc1ccc(OC)c(NC(=O)COC(=O)c2ccc(S(=O)(=O)N3CCOCC3)cc2)c1	·	0.2
CCOC(=O)c1oc2ccc(Br)cc2c1CSc1nnc(-c2ccc(OC)cc2)o1	·	1.7

The list goes on.
SMILES	CapD inh	AID504770
CSc1nc2c(cnn2-c2ccccc2)c(=O)[nH]1	-0.36	-1.6
Cc1cc(=O)oc2cc(OCC(=O)N3CCc4ccccc43)ccc12	-0.59	-0.1
O=S(=O)(c1ccccc1)c1cnc(-c2ccccn2)nc1-c1ccccc1	-0.13	·
CCOC(=O)c1sc(N2CCCCC2)c2c1CC(C)(C)CC2=O	-2.2	1.5
Cc1nc2ccccn2c1C(=O)NN=C1CCCC1	·	-0.3
Cc1ccc(C)c(-c2nc3ccccc3nc2-c2ccccc2)c1	-0.43	·
C[n+]1ccc(/C=C/c2ccccc2O)c2ccccc21	0.035	-0.3
C=CCNC(=O)Cc1csc(-c2ccccc2)n1	-0.28	-0.75
Nc1nc2cc(S(=O)(=O)NC3=NCCCCC3)ccc2s1	·	0
O=C(O)CC1(CC(=O)Nc2cccc3cnccc23)CCCC1	4.1	-0.05
CCOc1ccc(NC(=O)/C=N/O)cc1	-0.76	-0.35
CC(=O)N1N=C(N)SC12CCCC2	-0.18	-0.8
O=C(Nc1cccc(C(F)(F)F)c1)C1COc2ccccc2O1 (stereo not drawn)	-0.14	·
Cc1[nH]n(C)c(=O)c1N=Nc1ccc(F)cc1	-2.3	·
O=C(Nc1cc(Cl)ccc1Oc1ccc2ccccc2c1Cl)c1cc(Cl)cc(Br)c1O	0.62	·
CCOC(=O)C1=C(C)NC(=O)NC1c1ccc(C2NC(=O)NC(C)=C2C(=O)OCC)cc1 (stereo not drawn)	-0.08	·
COC(=O)CN(Cc1ccccc1)S(=O)(=O)c1ccc2c(c1)OCCO2	·	-0.15
COc1ccc(Cn2ccn(CC(N)=O)c(=O)c2=O)cc1	-0.44	0.2
CC1=C(C#N)c2nc(N)c(C#N)c(C)c2/C1=C/c1ccc(-c2ccccc2[N+](=O)[O-])o1	-0.015	·
O=C(Cc1coc2cc(O)ccc12)OCC(=O)N1CCCC1=O	·	0.1
Cn1c(Cc2nc(-c3cnccn3)no2)nnc1SCc1ccccc1	-0.59	-0.3
O=C(Nc1ccccc1NS(=O)(=O)c1ccc(F)cc1)C1CCC1	0.27	1.5
Cn1cc(S(=O)(=O)Cc2ccc(Br)cc2)c2ccccc21	·	-1.5
OC(c1ccccc1)(c1ccccc1)C(CN1CCOCC1)c1ccccc1 (stereo not drawn)	-0.59	0.55
COC(=O)c1c(C(=O)OC)c(-c2ccc(Br)cc2)n2c1CSC2	-0.28	·
O=C1Cc2ccccc2C(=O)N1n1cnnc1	0.29	-1.4
CC(=O)OC1c2ccccc2NC(c2ccccc2)C1(C)C (stereo not drawn)	0.21	-0.25
O=C(O)CC(C(=O)NCc1ccccc1)C1CCCO1 (stereo not drawn)	·	-1.1
CCOc1ccc(N=Cc2c[nH]c3ccc(Br)cc23)cc1	0.44	1.3
CC(=O)Nc1ccc(C(=O)NC(C)C(=O)OCc2ccccc2)cc1 (stereo not drawn)	-0.55	·

At a glance, three of the compounds above.
SMILES	CapD inh	AID504770
O=C(O)CC(C(=O)NCc1ccccc1)C1CCCO1 (stereo not drawn)	·	-1.1
CCOc1ccc(N=Cc2c[nH]c3ccc(Br)cc23)cc1	0.44	1.3
CC(=O)Nc1ccc(C(=O)NC(C)C(=O)OCc2ccccc2)cc1 (stereo not drawn)	-0.55	·

Looked up above:
O=C(Nc1ccccc1NS(=O)(=O)c1ccc(F)cc1)C1CCC1 @ CapD inh = 0.27
CCOc1ccc(N=Cc2c[nH]c3ccc(Br)cc23)cc1 @ CapD inh = 0.44
O=C1Cc2ccccc2C(=O)N1n1cnnc1 @ AID504770 = -1.4

(list continues)
SMILES	CapD inh	AID504770
CCOC(=O)c1sc(S(C)(=O)=O)c2c1CC(C)(C)C/C2=N/O	0.68	-0.45
O=C(Nc1ccccc1N1CCOCC1)c1cc2ccccc2oc1=O	-0.58	-0.05
COc1ccc(C2Nc3ccc4ccccc4c3C3=C2C(=O)CC(C)(C)C3)cc1 (stereo not drawn)	88	·
C#CC(OC(=O)c1ccccc1C(=O)O)c1ccccc1 (stereo not drawn)	-0.17	1.7
CCOC(=O)COc1ccc2c(c1)[nH]c1ccccc12	·	1.6
c1c2c(nc3c1CCCC3)CCCC2	1.1	0.45
CC(C(=O)Nc1cc(Cl)c(Cl)cc1Cl)N(C)C (stereo not drawn)	·	-0.6
CCOC(=O)c1cc(/C(C)=N/NS(=O)(=O)c2cc(C(F)(F)F)cc(C(F)(F)F)c2)on1	-1.6	-0.05
Cc1c(C(=O)n2cnc3ccccc32)oc2ccccc12	·	0.2
NC(=O)Cn1c(NCc2ccccc2)nc2ccccc21	·	-0.1
Cc1cc(C)c(NC(=O)CCCN2CCN(C)CC2)c(C)c1	0.2	0.45
Cc1[nH]c(=O)[nH]c(=O)c1/C=N/NC(N)=O	0.055	-1.6
CSc1nc2c(c(=O)[nH]1)C(c1ccccc1)C1=C(CC(C)(C)CC1=O)N2 (stereo not drawn)	42	-0.1
CN1CCN(S(=O)(=O)c2cccc3ccccc23)CC1	0.04	-0.05
N#Cc1ccc(-n2cccc2)nc1	-0.76	1.8
Cc1ccc(C2=NN(C(=O)CCC(=O)O)C(c3cn(-c4ccccc4)nc3-c3ccc(C)cc3)C2)cc1 (stereo not drawn)	-0.8	-0.45
O=C(CN1CCCCCC1)NCc1ccccc1	0.08	-0.7
Cc1ccc(C(=O)NN=C2CCN(S(=O)(=O)c3ccccc3)CC2)cc1	-0.17	·
CN1c2ccccc2C(=O)/C(=N\Nc2ccccc2F)S1(=O)=O	0.6	·
O=S(=O)(NC1CC1)c1ccc2c(c1)OCCO2	-0.89	1.6
COc1ccc(-n2nc(C(=O)Nc3ccccc3)c3ccccc3c2=O)cc1	0.025	·
Cc1c(C(=O)OC(C)C(=O)N(C)Cc2ccccc2)oc2ccccc12 (stereo not drawn)	·	-0.1
CC(O)Cn1cnc2c1c(=O)n(C)c(=O)n2C (stereo not drawn)	1.2	·
CCOC(=O)c1oc2ccccc2c1CSc1nnc(Cc2cccs2)n1CCc1ccccc1	·	-0.25
N#Cc1ccc(NC(=O)c2ccc(OC(F)(F)F)cc2)cc1	-0.81	-0.45
CC(O)(CS(=O)(=O)c1ccc(Cl)cc1)CS(=O)(=O)c1ccc(Cl)cc1	-0.17	-0.85
Cc1c(N=C2SCC(=O)N2c2c(C)n(C)n(-c3ccccc3)c2=O)c(=O)n(-c2ccccc2)n1C	0.06	-0.65
COC(=O)C1=CN(Cc2ccc(OC)c(OC)c2)C=C(C(=O)OC)C1c1ccc(OCc2ccccc2)cc1	52	·
CCNC(=S)N1CCn2cccc2C1c1cccs1 (stereo not drawn)	0.29	-0.4
CC(C)(C)C(=O)COC(=O)c1ccccc1C(=O)c1ccccc1	0.63	-0.15
CCS(=O)(=O)N1CCc2cc(C(=O)COC(=O)c3ccc(-n4cnnn4)cc3)ccc21	·	1.1
O=C(O)C1CC(=O)N(Cc2ccc(F)cc2)C1 (stereo not drawn)	0.51	-0.7
CCOC(=O)c1cc(C(O)(C(F)(F)F)C(F)(F)F)c(/N=C/N(C)C)o1	·	-1.3
CN1C(=O)C(S(=O)(=O)c2ccccc2)C2CC1(C)Oc1ccccc12 (stereo not drawn)	0.13	1.1
CN1CCN(Cc2ccc[nH]2)CC1	0.18	0.15
Cc1ccc(-n2nc3c(c2NC(=O)c2cc4ccccc4oc2=O)CSC3)cc1	0.045	·
CC(=O)N1C=CN(C(C)=O)C(c2cn(C)c3ccccc23)C1c1cn(C)c2ccccc12 (stereo not drawn)	0.38	0.5
O=C(CC1=NS(=O)(=O)c2ccccc2N1)N1CCN(c2ccccc2)CC1	0.99	-0.55
CCn1c2ccccc2c2nnc(SCC(=O)N3CCCc4ccccc43)nc21	0.06	0.25
CC(C)(C)c1ccc(C(=O)O/N=C/c2ccc3c(c2)OCO3)cc1	1.9	·
COc1ccc(C(=O)Nc2nnc(-c3ccccc3C)s2)cc1OC	i	0.05
Clc1cc(Cl)cc(-c2nnc(N3CCCC3)o2)c1	68	0.05
OCCCc1nc2ccccc2n1Cc1ccccc1Cl	-0.04	0.9
CCCN(CCC)C(=O)C[n+]1cccc(/C=N/O)c1	0.32	-0.5
Cn1c(=O)c2c(ncn2CC(=O)NC2CCSC2=O)n(C)c1=O (stereo not drawn)	0.16	-0.3
CC(=O)Nc1ccc(S(=O)(=O)n2c(N)c(C#N)c3nc4ccccc4nc32)cc1	·	-0.1
Fc1cccc(Cl)c1CNCc1c(F)cccc1Cl	-0.055	0
CC(=O)C1=C(C)OC(N)=C(C#N)C1c1ccsc1 (stereo not drawn)	0.98	·
COc1ccc(-c2nc3ncccc3o2)cc1NC(=O)C(C)Oc1ccc(Cl)cc1Cl (stereo not drawn)	·	0.95
FC(F)(F)c1nnc2sc(-c3cnccn3)nn12	0.045	0.75
Additional results:
SMILES	CapD inh	AID504770
O=S(=O)(c1ccccc1)c1cnc(-c2ccccc2)nc1N1CCCC1	-0.59	·
Nc1cc(=O)[nH]c(SCCSc2ccccc2)n1	-0.22	-0.7
CCN(CC)Cc1cccn1-c1nnc(N2CCCCCC2)s1	0.26	-0.75
O=C(CSc1nc2c(c(=O)n1-c1ccc(Br)cc1)SCC2)N1CCCc2ccccc21	-0.68	·
Cc1ccc(COn2c(-c3ccc(Cl)cc3)nc3ccc(Cl)cc32)cc1	-0.24	·
Cc1ccc(-n2nnc(C(=O)NCC3CCCO3)c2N)c(C)c1 (stereo not drawn)	·	-1.1
Cc1ccc(Cn2c(/C=C/c3ccc(Cl)cc3Cl)nc3ccccc32)cc1	39	·
NS(=O)(=O)c1ccc(C(=O)Nc2ccc(-c3cn4c(n3)SCC4)cc2)cc1	·	0.5
O=C1NS(=O)(=O)c2ccccc21	-0.52	0.5
CCN(CC)c1ccc2cc(C(=O)NC(C)=O)c(=Nc3ccc(C(C)=O)cc3)oc2c1	-0.14	·
Cc1cc(C)c(C(=O)C/C(=N/O)C(F)(F)F)c(=O)[nH]1	0.04	0.8
c1nc(N2CCC2)c2ccsc2n1	·	-0.7
CN1C2CCC1CC(OC(=O)CCN1CCCC1)C2 (stereo not drawn)	0.065	-1.1
O=C1NC2(CCN(C(=O)Nc3ccccc3)CC2)Oc2ccccc21	-0.49	1.1
N#C/C(=C(/O)Cn1nc(C(=O)O)c2ccccc2c1=O)c1nc2ccccc2s1	·	-0.25
Nc1n(N)c2ccccc2[n+]1CC(=O)c1ccccc1	-0.015	-0.4
C/C(=N\NC(=O)C1CC1)c1ccc(S(=O)(=O)N2CCCC2)cc1	·	-0.8
NC(=O)CC(=O)NC12CC3CC(CC(C3)C1)C2	0.16	-0.8
Nc1cc(Cc2cc(N)cc(C(F)(F)F)c2)cc(C(F)(F)F)c1	0.65	·
COc1cccc(C(=O)COC(=O)C(C)N2C(=O)C3C4C=CC(C4)C3C2=O)c1 (stereo not drawn)	-0.93	1.9
CCSc1nnc(Cn2c(=O)sc3ccccc32)n1CCc1ccccc1	-0.89	0.7
CCC(C)(C)c1cc2cc(NC(=O)c3cc(Cl)nc(Cl)c3)ccc2[nH]1	-0.79	·
NCCCCNCCCN	-0.73	·
NC(=O)C1CCN(S(=O)(=O)c2ccc3c(c2)CN(C(=O)C(F)(F)F)CC3)CC1	0.65	·
O=C(CC(c1ccccc1)c1ccccc1O)N1CCCC1 (stereo not drawn)	-0.29	-0.5
O=C(O)CCSc1nnc2sc3ccccc3n12	0.92	-0.1
N#CNC1=NCN(CCN2CCOCC2)CN1	0.29	1.1
O=C(Cc1c(O)c2ccccc2[nH]c1=O)NC1CCCCCCC1	-0.53	1.8
Cc1ccc(NC=C2C(=O)OC(C)(C)OC2=O)cc1	·	-0.65
COC(=O)C12Sc3ccccc3NC(c3ccc(C)cc3)=C1C(=O)C(=O)N2c1ccccc1 (stereo not drawn)	1.3	·
CCOC(=O)c1nc2cc3n(c(C)c-2c1C)C(C)C(CC)=C3C (stereo not drawn)	42	·
N#CSC(C#N)Cc1ccc(Cl)c(Cl)c1 (stereo not drawn)	-1.9	-4.2*
COc1ccc(/C=C(\C#N)c2ccc(C)cc2)cc1	-0.23	-0.95
